# Screens deposited in PubChem BioAssay by ICCB-Longwood Screening Facility, Harvard Medical School.
# GIV-Gai inh = GIV-Galpha-i interaction inhibition; AID 1224905; percent of control (FP), % (no concentration beside the values); P08753; 210,000 tested, 0.42% active; Galpha-i3/FITC-GIV peptide fluorescence polarization, 90 min; hits give low values; scaled: aluminum fluoride 0%, vehicle 100%;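 active means replicate mean at 85% of control or lower, very high polarization wells dropped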;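 further: wells of about 15 µL received 100 nL stock; the first replicate is given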
# Target sequence (P08753 whole entry, looked up): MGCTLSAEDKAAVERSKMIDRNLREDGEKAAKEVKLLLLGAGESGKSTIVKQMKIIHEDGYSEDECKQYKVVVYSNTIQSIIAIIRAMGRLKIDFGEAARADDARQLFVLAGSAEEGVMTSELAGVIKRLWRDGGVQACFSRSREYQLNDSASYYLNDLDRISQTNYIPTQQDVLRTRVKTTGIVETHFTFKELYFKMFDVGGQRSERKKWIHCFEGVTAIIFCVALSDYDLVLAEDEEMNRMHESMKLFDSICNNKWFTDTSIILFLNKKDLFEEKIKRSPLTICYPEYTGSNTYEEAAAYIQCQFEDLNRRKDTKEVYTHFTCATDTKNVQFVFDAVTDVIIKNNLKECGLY
# HCMV NEC inh = cytomegalovirus nuclear egress complex inhibition; 190,000 tested, 0.15% active; inhibition, % (test concentration not listed); HTRF UL50-UL53 interaction, normalized percent inhibition; AID 1918969;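 active means both replicates at 50% or more, plus weaker picks with an unusually low signal ratio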;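 further: stock transfer was 100 nL into about 20 µL; 0% = negative control wells and 100% = wells with untagged competitor protein; inactives centre near -12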
# Sa growth inh = S. aureus growth inhibition; S. aureus RN4220 growth, OD600, 20 h, 42 °C; hits give low values; relative growth, % (concentration not given with the values); 170,000 tested, 0.53% active;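 active means growth at 42 °C up to 50% and 20 or more points under that at 30 °C, or under 10% at both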;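 further: 300 nL library stock went into each well; scaled to the means of positive and negative controls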
# Sa growth inh second temp = also measured in Sa growth inh; calls as there; relative growth, %; measured here: growth at 30 °C;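 optical density after 20 h as mean of two plates; 100% = untreated growth and lower means inhibition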
# * hit, by the source's call; · = not tested or not shown; & = joins results of further samples.
# A first look (22 entries):
SMILES,GIV-Gai inh,HCMV NEC inh,Sa growth inh,Sa growth inh second temp
Cc1ccc2nsnc2c1S(=O)(=O)N1CCCC1,107,-98,77,111
CCCn1c(=O)c2sccc2n2c(CCCC(=O)N3CCN(c4cccc(C)c4C)CC3)nnc12,99,·,97,70
CCn1c(C(=O)O)c(CC(=O)Nc2cc(OC)c(OC)c(OC)c2)c2ccccc21,109,4,·,·
O=C(O)c1ccnn1C(F)F,103,3,101,86
CCc1ccc(S(=O)(=O)N2CCSC2c2ccccc2)cc1 (stereo not given),100,·,96,91
CCCn1c2ccccc2c2nnc(SCC(=O)Nc3ccc(F)c(F)c3)nc21,106,-9,98,84
Cc1ccc(CN2CNc3nnnn3C2)cc1,·,-28,99,94
O=c1[nH]c2cc(Cl)c(S(=O)(=O)N3CCCC3)cc2[nH]1,98,-28,·,·
Clc1ccc2sc(N3CCCC3)nc2c1,98,-10,85,70
COc1ccc(C(=O)Cn2c(=O)c(-c3cc(C)ccc3NC(C)=O)nc3ccccc32)cc1,100,-12,97,89
COc1cc2c(cc1OC)C(COc1ccc(F)cc1)N(C(=O)c1ccc(S(=O)(=O)N3CCCC3)cc1)CC2 (stereo not given),104,·,121,90
CCC1CCCCN1C(=O)CSc1nc2c([nH]c3ccccc32)c(=O)n1-c1cccc(OC)c1 (stereo not given),101,·,92,85
Cc1ccc2cc(C3CC(c4ccccc4)=NN3C(=O)CCC(=O)O)c(=O)[nH]c2c1 (stereo not given),·,-14,96,95
C=CCN1CC2=C(C1=O)C(c1ccccc1)NC(=O)N2 (stereo not given),·,-26,85,95
CC(C)Cn1c(SCc2nnc(-c3cccs3)o2)nc(O)cc1=O,·,-3,103,91
COc1ccc(CNC(=O)Cn2c(=O)c3cccn3c3ccccc32)cc1,98,-6,138,86
CCCCc1ccc(Nc2ncnc3c2cnn3-c2ccc(C)cc2)cc1,103,·,98,88
O=C(O)c1ccc(OCOc2ccc(C(=O)O)c(C(=O)O)c2)cc1C(=O)O,104,6,110,100
O=C(CSc1cn(CC(=O)N2CCOCC2)c2ccccc12)Nc1ccccc1C(F)(F)F,109,·,131,90
COC(=O)C1=CN(CCc2ccc(F)cc2)C=C(C(=O)OC)C1c1ccccc1C(F)(F)F,101,·,100,86
CCc1nc(NCc2cccnc2)c2onc(-c3ccc(C)cc3)c2n1,113,-11,·,·
c1ccc(Cn2cnnc2)cc1,·,-9,93,91

# The list itself, from the first entry:
SMILES,GIV-Gai inh,HCMV NEC inh,Sa growth inh,Sa growth inh second temp
Cc1ccc2nsnc2c1S(=O)(=O)N1CCCC1,107,-98,77,111
CCCn1c(=O)c2sccc2n2c(CCCC(=O)N3CCN(c4cccc(C)c4C)CC3)nnc12,99,·,97,70
CCn1c(C(=O)O)c(CC(=O)Nc2cc(OC)c(OC)c(OC)c2)c2ccccc21,109,4,·,·
O=C(O)c1ccnn1C(F)F,103,3,101,86
CCc1ccc(S(=O)(=O)N2CCSC2c2ccccc2)cc1 (stereo not given),100,·,96,91
CCCn1c2ccccc2c2nnc(SCC(=O)Nc3ccc(F)c(F)c3)nc21,106,-9,98,84
Cc1ccc(CN2CNc3nnnn3C2)cc1,·,-28,99,94
O=c1[nH]c2cc(Cl)c(S(=O)(=O)N3CCCC3)cc2[nH]1,98,-28,·,·
Clc1ccc2sc(N3CCCC3)nc2c1,98,-10,85,70
COc1ccc(C(=O)Cn2c(=O)c(-c3cc(C)ccc3NC(C)=O)nc3ccccc32)cc1,100,-12,97,89
COc1cc2c(cc1OC)C(COc1ccc(F)cc1)N(C(=O)c1ccc(S(=O)(=O)N3CCCC3)cc1)CC2 (stereo not given),104,·,121,90
CCC1CCCCN1C(=O)CSc1nc2c([nH]c3ccccc32)c(=O)n1-c1cccc(OC)c1 (stereo not given),101,·,92,85
Cc1ccc2cc(C3CC(c4ccccc4)=NN3C(=O)CCC(=O)O)c(=O)[nH]c2c1 (stereo not given),·,-14,96,95
C=CCN1CC2=C(C1=O)C(c1ccccc1)NC(=O)N2 (stereo not given),·,-26,85,95
CC(C)Cn1c(SCc2nnc(-c3cccs3)o2)nc(O)cc1=O,·,-3,103,91
COc1ccc(CNC(=O)Cn2c(=O)c3cccn3c3ccccc32)cc1,98,-6,138,86
CCCCc1ccc(Nc2ncnc3c2cnn3-c2ccc(C)cc2)cc1,103,·,98,88
O=C(O)c1ccc(OCOc2ccc(C(=O)O)c(C(=O)O)c2)cc1C(=O)O,104,6,110,100
O=C(CSc1cn(CC(=O)N2CCOCC2)c2ccccc12)Nc1ccccc1C(F)(F)F,109,·,131,90
COC(=O)C1=CN(CCc2ccc(F)cc2)C=C(C(=O)OC)C1c1ccccc1C(F)(F)F,101,·,100,86
CCc1nc(NCc2cccnc2)c2onc(-c3ccc(C)cc3)c2n1,113,-11,·,·
c1ccc(Cn2cnnc2)cc1,·,-9,93,91
CCOC(=O)c1ccc(NC(=O)C2CCN(c3ncnc4c3sc3nc(C)cc(-c5ccccc5)c34)CC2)cc1,97,-22,·,·
CC(C)c1ccc(S(=O)(=O)c2cnc(SCC(=O)Nc3ccc(F)cc3F)nc2N)cc1,107,·,134,96
COc1ccc(-c2cn3nc(N4CCCC(C(=O)Nc5cc(C)cc(C)c5)C4)sc3n2)cc1 (stereo not given),102,·,95,95
Cc1nc(N2CCN(c3ccccn3)CC2)c2c(C)c(C(=O)N3CC(C)CC(C)C3)sc2n1 (stereo not given),111,8,·,·
CC(C)c1ccc(NS(=O)(=O)c2cc3c4c(c2)CCN4C(=O)CC3)cc1,102,-5,·,·
COc1ccccc1N1C(=O)C2CSC(c3ccc(C)cc3)N2C1=O (stereo not given),99,·,87,84
Cc1c(Cl)cccc1-n1nc(C)c2c(C(=O)NCc3ccccc3)cc(C3CC3)nc21,101,·,105,90
CC(=O)NC1=NC(=O)/C(=C/c2cccc(Oc3ccccc3)c2)S1,115,·,87,82
O=c1[nH]nc(SCc2cn3ccccc3n2)c(=O)[nH]1,·,-36,105,89
CC1CN(C(=O)Nc2ccc(C(=O)NCc3cccc(F)c3)cc2)c2ccccc2S1 (stereo not given),106&100,-9&0,106,95
CSCCC(N=C1NS(=O)(=O)c2ccccc21)C(=O)N1CCN(C(=O)c2ccco2)CC1 (stereo not given),·,-23,91,90
CNC1c2c(ccc3ccccc23)OCC1CO (stereo not given),105,-21,·,·
CC(C)(C(=O)Nc1cccc(Cl)c1)S(=O)(=O)c1ccc(C(F)(F)F)cn1,94,-6,101,95
O=C(O)CC1(CC(=O)NCc2ccco2)CCCCC1,110,0,104,96
Cc1cc(C(=O)Nc2c(C)nc3ccccn3c2=O)ccc1[N+](=O)[O-],101,·,81,92
Cn1cnc(S(=O)(=O)Nc2ccccc2Oc2ccccc2)c1,93,-14,90,83
CCN(CC)c1cccc(Oc2ncnc3sccc23)c1,·,-7,101,96
CCCn1c2ccccc2c2cc(OC)ccc21,103,-24,84,82
Cn1cnc(S(=O)(=O)N2CCCCC2)c1,106,-13,·,·
COCCN=c1scc(-c2cccs2)n1/N=C/c1c(C)nn(-c2ccccc2)c1Cl,·,-28,76,82
CSc1ccccc1NC(=O)Cn1c(SC)nc2ccccc21,·,-32,111,85
Cc1ccn2cc(-c3ccc(O)c(O)c3)nc2c1,·,-16,86,73
O=C(O)c1c2c(nc3ccccc13)CCC2,98,-19,82,80
O=C1N=C(c2ccccc2)O/C1=C\C=C\c1ccccc1,·,-33,95,85
Cc1ccc(C(=O)Nc2ccc3c(c2)CCC(=O)N3)cc1C,102,-16,·,·
COc1cc(NC(=O)Cn2c(=O)cc(C)c3c(C)nn(-c4ccc(C)cc4)c32)cc(OC)c1,101,·,89,97
CCc1c(C)oc2cc3ccccc3c-2c1C,106,-31,103,86
COc1ccc(CCNC(=S)NCc2ccco2)cc1OC,100,-11,62,28
C=CCNC(=O)C1CCCN(S(=O)(=O)CCC)C1 (stereo not given),84*,1,82,85
FC(F)(F)c1ccc(N2CCN(C(c3ccccc3)c3ccccc3)CC2)nc1,102,6,87,70
O=C(CNS(=O)(=O)c1ccccc1)Nc1ccc2c(c1)OCO2,107,2,94,69
Cc1ccc(-c2noc(CSc3ccc(-c4ccc5c(c4)OCO5)nn3)n2)cc1,106,-15,·,·
O=C(CC(=O)NN=C1CCCC1)NCc1ccccc1,98,-12,91,82
CN(Cc1ccccc1)C(=O)CCC(=O)N1CC2CCCN2c2ccccc21 (stereo not given),106,12,106,107
Oc1c(C(c2ccccc2)N2CCC3(CC2)OCCO3)sc2nc(-c3ccco3)nn12 (stereo not given),93,·,157,88
Cc1cc2n(n1)CCCN2C(=O)Nc1ccccc1F,100,·,91,91
CCn1c(=O)c(CCC(=O)NCCN2CCOCC2)c(C)c2c(C)nn(-c3ccccc3)c21,105,-30,98,91
CCOC(=O)C1CCCN(c2nc(C)nc3onc(C)c23)C1 (stereo not given),102,-7,·,·

# 3 entries drawn at random from those above:
SMILES,GIV-Gai inh,HCMV NEC inh,Sa growth inh,Sa growth inh second temp
Oc1c(C(c2ccccc2)N2CCC3(CC2)OCCO3)sc2nc(-c3ccco3)nn12 (stereo not given),93,·,157,88
C=CCNC(=O)C1CCCN(S(=O)(=O)CCC)C1 (stereo not given),84*,1,82,85
O=C1N=C(c2ccccc2)O/C1=C\C=C\c1ccccc1,·,-33,95,85

# Remaining list, next part
SMILES,GIV-Gai inh,HCMV NEC inh,Sa growth inh,Sa growth inh second temp
Cc1ccc(NC(=O)CN2C(=O)c3cccnc3Sc3ccccc32)cc1C,106,·,79,89
CCN(CCO)C(=O)CCN1C(=O)/C(=C/c2ccc(OC)c(OC)c2)SC1=S,105,·,104,103
CC(=O)Nc1ccccc1-c1nc2ccccc2n(C(C)C(=O)Nc2c(C)cc(C)cc2C)c1=O (stereo not given),103,-19,·,·
COC(=O)c1ccc(C2NC(=O)N(C)C(C)=C2C(=O)OCCOc2ccccc2)cc1 (stereo not given),103,-18,·,·
Cc1cc2c(cc1S(=O)(=O)CCC(=O)N1CCCC(C)C1)OCC(=O)N2 (stereo not given),102,·,105,96
O=C(O)CCSc1cccc(C(F)(F)F)c1,101,20,89,93
Cc1ccc(N/C(N)=N/c2nc(CSc3nnc(C)s3)cc(=O)[nH]2)c(C)c1,102,-4,102,91
CCC(C)NC(=O)CN1C(=O)COc2ccc(S(=O)(=O)N3CCOCC3)cc21 (stereo not given),110&102,-13&-11,91,96
Cc1ccc(C)c(C(=O)Cn2nc3n(Cc4ccccc4)c(=O)c4ccccc4n3c2=O)c1,99,-28,·,·
CC(Sc1ccccn1)C(=O)Nc1ccc(S(N)(=O)=O)cc1 (stereo not given),104,·,100,82
CC(C)N(C(=O)C[n+]1ccc(/C=N/O)cc1)C(C)C,104,·,92,97
Cc1ccc(S(=O)(=O)Nc2cc(C(=O)O)ccc2N2CCN(c3cccc(Cl)c3)CC2)cc1,105,-84,·,·
COc1ccc(-c2nn(-c3ccccc3)cc2C#N)cc1OC,·,10,98,96
O=C1CC(c2cccs2)CC(O)=C1C=Nc1cccc(C(F)(F)F)c1 (stereo not given),98,-6,78,90
N#CCSc1nnc(CSc2nc3ccccc3s2)n1Cc1ccccc1,·,-8,121,69
CCC(C)(C)n1c(=O)[nH]c2c(c1=O)CCC2,104,·,109,108
O=C1CNC(=O)N1CC(O)Cn1c2ccccc2c2ccccc21 (stereo not given),108,-8,123,75
Cc1ccccc1S(=O)(=O)Cc1ccc(C(=O)N2CCN(c3cccc(Cl)c3)CC2)o1,103,-8,104,74
Clc1ccc(CSc2nnc(Cc3cccs3)n2C2CC2)cc1Cl,·,-18,63,17
O=C(CN1C(=O)C2(OCCO2)c2ccccc21)c1ccc(Br)cc1,107,·,100,81
CC(C)OCCCn1c(=O)c2ccccc2n2c(-c3ccccc3)nnc12,99,12,106,92
N#CCc1ccc(NC(=O)c2nccnc2C(=O)O)cc1,99,-30,95,84
NC(=O)C[n+]1cccc(C(N)=O)c1,113,-5,99,89
COC(=O)C(CC(=O)c1ccc(Br)cc1)n1cncn1 (stereo not given),93,·,85,79
O=C(Nc1ccc(Cl)cc1)c1ccc(CN2C(=O)CCn3nccc32)cc1,106,-8,·,·
Brc1ccc(-n2nnnc2-c2cn[nH]c2-c2ccccc2)cc1,100,-16,92,87
Cc1cccc(NC(=S)NCCCN2CCOCC2)c1,100,-13,118&77,83&91
O=C1CCCN=C(N(C(=O)c2ccco2)c2cccc(C(F)(F)F)c2)S1,104,4,111,101
O=C(/C=C/c1ccc(Br)o1)OCCCn1c(=O)[nH]c2ccccc21,·,-50,70,84
CC1CCN(C(=O)C2CCCN(S(=O)(=O)c3ccc4c(c3)nnn4C(C)C)C2)CC1 (stereo not given),108,3,·,·
Cc1ccc(N/C(N)=N/c2nc3c(c(=O)[nH]2)CCCC3)c(C)c1,108,-14,93,96
S=C1NC2(CCCC2)Nc2ccccc21,103,-27,96,80
COc1ccc(NCC(O)COc2ccc(OC)cc2)cc1 (stereo not given),107,-14,85,99
Cc1ccc(Cl)cc1NC(=O)C1CCCN(S(=O)(=O)c2c(C)noc2/C=C/N(C)C)C1 (stereo not given),101,-16,98,87
O=C1N(CNc2ccccc2)CCN1CNc1ccccc1,101,·,85,79
O=C(CSCc1ccccc1)NCc1ccccc1,·,-10,110,103
